# GLA inh pH 4.5: blocks human alpha-galactosidase A at pH 4.5. 230,000 tested, under 10 active. purified enzyme, 4-MU-alpha-Gal fluorescence, pH 4.5. AID 1467. activity change, negative = inhibition, % at 105 µM; inconclusive = small, poorly fitted or top-dose-only inhibition, or a rising curve; inactive = flat fitted curve, though single readings scatter; no compound was filed as active;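 note: 0% = full activity with enzyme and -100% = basal without enzyme; dose as in the result columns while the protocol names 77 µM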
# Target sequence (P06280 whole entry, looked up): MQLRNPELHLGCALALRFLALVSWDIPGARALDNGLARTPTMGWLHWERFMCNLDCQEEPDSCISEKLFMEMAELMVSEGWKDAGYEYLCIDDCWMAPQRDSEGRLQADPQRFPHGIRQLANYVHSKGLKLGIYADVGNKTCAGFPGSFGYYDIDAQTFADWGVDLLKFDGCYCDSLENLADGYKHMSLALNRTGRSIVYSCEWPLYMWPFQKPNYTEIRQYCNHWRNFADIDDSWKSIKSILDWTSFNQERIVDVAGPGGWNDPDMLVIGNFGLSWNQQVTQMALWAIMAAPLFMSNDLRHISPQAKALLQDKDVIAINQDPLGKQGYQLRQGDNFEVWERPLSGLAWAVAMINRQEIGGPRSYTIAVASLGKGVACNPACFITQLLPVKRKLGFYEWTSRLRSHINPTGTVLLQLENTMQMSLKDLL
# miR-21 FLuc: raises the signal of a miR-21 reporter; 340,000 tested, under 10 active; HeLa miR-21 FLuc reporter, luciferase, 48 h; AID 2288; Potency, µM (titrated, usually from 38.3 µM), for inactives: at the highest dose reporter change, positive = more light; active = well fitted rising curve with a large enough effect; inconclusive = small, poorly fitted or top-dose-only effect; inactive = no such curve, though single readings can be large or run the other way;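 note: % of control where 0% means no effect; miR-21 action dims this reporter so a rising signal means less miR-21 action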
#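 HeLa miR-21-FLuc reporter line, endogenous miR-21; 2000 cells/well in DMEM/10% FBS; compound titration up to ~40uM final, 48 h, 37 degree Celsius; luciferase detection reagent, 15 min lysis, CCD luminescence.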
# Rango release inh: inhibitors of RanGTP-induced Rango-importin beta complex dissociation; 340,000 compounds, 0.071% hits; Potency, µM (highest dose often 46.1 µM), for inactives: top-dose activity change, negative = inhibition; AID 540253; Biochemical FRET Rango-importin beta, RanGTP-induced dissociation; active means falling FRET ratio curve, often poorly fitted, with flat reads before Ran was added; inconclusive means other falling curves, or compound fluorescence or quenching; inactive means flat or rising ratio curve;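 note: potency is the fitted concentration of half-maximal effect; % of control where 0% means no effect; nearly all actives have a fitted effect of over 45% in size; -100% = wells without RanGTP and RCC1; the record marks most hits as doubtful in a second field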
#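 FRET read at 45 min, room temperature: inhibitors block the CFP/YFP signal rise when RanGTP (0.6 uM Ran, 2 mM GTP, 0.2 uM RCC1) frees Rango (0.1 uM) from importin beta (0.25 uM). Pre-read after 5 min compound exposure flags interference.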
# Rango-impB inh: Rango-importin beta binding inhibition; Rango CFP/YFP FRET sensor + importin beta, 45 min; Potency, µM (titrated, usually from 92.2 µM), for inactives: at the top dose inhibition of complex formation; 340,000 compounds, 0.031% hits; AID 540263; active = rising FRET ratio curve, often small or poorly fitted; inconclusive = mostly compound fluorescence or quenching in the first reads; inactive = flat curves in all reads;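 note: potency is the fitted concentration of half-maximal effect; 0% = DMSO wells and 100% = buffer wells lacking importin beta; nearly all actives have a fitted effect of over 15% in size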
#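 FRET biosensor (snurportin 1 IBB flanked by EYFP and cerulean), 50 nM, with compound 5 min, then 0.125 microM importin beta in PBS, 1 mM DTT, 0.02% Tween-20, 0.1% BSA. CFP/YFP ratio read after 45 min at room temperature; pre-read flags interference.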
# * marks the source's active call; other numbers are inactive results; u = inconclusive; x = no result given. Some of the compounds tested; rates above refer to the full screens.
Structure	GLA inh pH 4.5	miR-21 FLuc	Rango release inh	Rango-impB inh
C[C@H]1O[C@@H](n2cc(F)c(=O)[nH]c2=O)[C@H](O)[C@@H]1O	-2	x	23%	-0.1%
O=C(CCNC(=O)c1ccccc1)Nc1nc2ccccc2s1	x	x	-4%	-2.9%
CC(C)(C)NC(=O)NC(=O)CN1CCN(S(=O)(=O)c2ccccc2)CC1	2	4%	6%	1.2%
O=C(Nc1ccc(N2CCN(C(=O)c3cccs3)CC2)cc1)c1ccc(Br)o1	x	x	11%	1.4%
O=C1CCC/C(=N/NC(=O)c2ccc(NS(=O)(=O)c3cccs3)cc2)C1	-21	3%	-3%	u
Cc1ccc(S(=O)(=O)CC(=O)Nc2ccc(Cl)cn2)cc1	4	0%	1%	-5.3%
CCOc1ccc(C(=O)/C=C/c2cn(CN3CCN(C)CC3)c3ccccc23)cc1	-12	-35%	u	u
C[C@@H](NC(=O)c1nc[nH]c1C(=O)NCC(=O)OCc1ccccc1)c1ccccc1	x	5%	-14%	2.7%
CCOc1cc(NC(=O)c2ccccn2)c(OCC)cc1NC(=O)CC(C)C	7	-2%	10%	-0.3%
Nc1nc(Nc2ccccc2)nc(C(F)(F)F)n1	x	-54%	29%	0.4%

# A different layout for two compounds above:
O=C(Nc1ccc(N2CCN(C(=O)c3cccs3)CC2)cc1)c1ccc(Br)o1
  GLA inh pH 4.5: x | miR-21 FLuc: x | Rango release inh: 11% | Rango-impB inh: 1.4%

O=C1CCC/C(=N/NC(=O)c2ccc(NS(=O)(=O)c3cccs3)cc2)C1
  GLA inh pH 4.5: -21 | miR-21 FLuc: 3% | Rango release inh: -3% | Rango-impB inh: u

# Next section.
Structure	GLA inh pH 4.5	miR-21 FLuc	Rango release inh	Rango-impB inh
CC(C)(C)c1ccc(C(=O)OCC(=O)NCc2ccco2)cc1	x	x	0%	1.6%
Cc1cccc(C)c1NC(=O)CNC(=O)c1ccc2c(c1)OCCO2	x	x	17%	-4.4%
COc1ccc(C2=NN(CN3C(=O)C(=O)c4ccccc43)C(c3ccc(C)cc3)C2)cc1 (stereo not given)	-1	-48%	1%	3.5%
COc1ccc(CN(C)Cc2c(O)ccc3ccccc23)cc1	x	-1%	-4%	0.7%
O=C(CNC(=O)c1ccccc1)OCc1cccc([N+](=O)[O-])c1	7	-9%	5%	-2.7%
C[C@H]1CCC[C@@]2(O[C@@H](CCO)C[C@H](O)[C@H]2O)O1	x	x	-2%	-2.7%
O=C(CCc1ccccc1)OCCN1CCOCC1	9	-4%	0%	0.3%
CCc1nnc(NC(=O)CSc2nnc(-c3ccccc3NC(=O)c3ccccc3)o2)s1	-7	-3%	8%	-2.9%
CCCCCCN=CC1=C(O)CC(C)(C)CC1=O	6	-10%	21%	1.2%
O=C(CN1CCN(S(=O)(=O)c2ccccc2F)CC1)Nc1ccnn1C1CCCC1	x	x	19%	3.2%

# Single records, from the list above. Values in the order: GLA inh pH 4.5, miR-21 FLuc, Rango release inh, Rango-impB inh
# COc1ccc(CN(C)Cc2c(O)ccc3ccccc23)cc1 reads x, -1%, -4%, 0.7%
# O=C(CNC(=O)c1ccccc1)OCc1cccc([N+](=O)[O-])c1 reads 7, -9%, 5%, -2.7%
# CCc1nnc(NC(=O)CSc2nnc(-c3ccccc3NC(=O)c3ccccc3)o2)s1 reads -7, -3%, 8%, -2.9%
# O=C(CCc1ccccc1)OCCN1CCOCC1 reads 9, -4%, 0%, 0.3%

# The list continues:
Structure	GLA inh pH 4.5	miR-21 FLuc	Rango release inh	Rango-impB inh
CNCCCC1Sc2ccccc2Oc2ccccc21 (stereo not given)	-1	-18%	1%	-0.1%
O=C(CCC(=O)NNc1nc2ccccc2c2nc(-c3ccccc3)nn12)NCCCN1CCOCC1	-4	-19%	-2%	0.0%
O=C(Nc1ccc(Cl)cc1)N1CCN(C(=O)C2CCCO2)CC1 (stereo not given)	x	-2%	0%	3.8%
CCOc1ccc(-c2nc(C)c(C(C)=O)n2O)cc1	2	-6%	2%	3.9%
COc1ccc([N+](=O)[O-])cc1N(CC(=O)NCc1ccco1)S(C)(=O)=O	10	-3%	-10%	2.0%
O=C(N/N=C/c1ccc(Cl)cc1Cl)c1cccc(N2CCCC2=O)c1	x	-14%	-18%	0.0%
C=CCNC(=S)N1CCC(C(=O)c2ccc3c(c2)OCCO3)CC1	0	-4%	0%	-1.8%
Cc1occc1-c1nc(-c2ccccn2)no1	-5	-16%	15%	1.4%
CCOC(=O)c1ccc(COC(=O)c2nonc2N)cc1	-3	1%	-11%	-1.0%
N#Cc1nc(Cc2ccccc2)oc1N1CCN(c2ccccc2)CC1	u	-10%	22%	0.6%
COc1ccc(C(=O)CN2C(=O)NC3(CCCc4ccccc43)C2=O)cc1 (stereo not given)	x	x	-25%	-0.6%
O=C(CSc1nnc(-c2ccccc2F)o1)NC1CC1	x	x	3%	-2.3%
Cc1nc2cc(NC(=O)N3CCCC3)ccc2n1C	-3	-14%	-9%	0.4%
COc1ccccc1C(=O)Nc1nnc(CCc2ccccc2)s1	x	10%	22%	3.1%
CC(C)NC(C(=O)Nc1cc(Cl)cc(Cl)c1)c1ccccc1 (stereo not given)	-4	-5%	12%	1.8%
COC(=O)C1=NNC2(c3ccc(Cl)cc3)C(=O)N(c3ccc(Cl)cc3)C(=O)C12 (stereo not given)	-6	-2%	-21%	-2.5%
CCOC(=O)c1ccccc1NC(=O)CN(c1ccc(OCC)cc1)S(C)(=O)=O	-2	2%	x	x
CC1(c2ccc([N+](=O)[O-])cc2)Nc2ccccc2S1 (stereo not given)	x	-30%	-3%	2.1%
O=C(OCc1ccc(Cl)c(Cl)c1)c1cccnc1Cl	x	-2%	4%	0.1%
COc1ccc(/C=C/C(=O)c2c(O)c(OC)c3occc3c2OC)cc1	0	2%	8%	0.3%
CCOC1(NC(=O)c2ccccc2)C(C)=CC(=O)C=C1C	-1	1%	-7%	-0.6%
CC(=NNc1nc2ccccc2o1)c1cc2ccccc2cn1	x	x	u	u
CNC(=O)c1oc(-c2ccc(Cl)cc2)nc1C	7	-9%	-1%	-0.3%
CCCCOc1cccc(C(=O)O)c1	-10	0%	-16%	5.7%
CC(C(=O)c1ccccc1)n1cnc2ccccc2c1=O (stereo not given)	0	-21%	-3%	2.1%
CCSc1nc(NCCN(C)C)c2c3c(sc2n1)COC(C)(CC)C3 (stereo not given)	-7	-2%	-1%	-1.3%
CCN1C[C@@H]2[C@@H]3C(=O)N(Cc4ccccc4)C(=O)[C@@H]3[C@](Cc3ccccc3)(C(=O)OC)N2C1=NC1CCCCC1	x	x	-15%	3.3%
COc1cccc(NC(=O)CSc2nnc(-c3cc(-c4ccccn4)nc4ccccc34)o2)c1	14	0%	12%	-4.0%
CCNS(=O)(=O)c1cc(S(C)(=O)=O)ccc1Cl	-1	-5%	1%	-2.8%
CCN(CC)C1CC(=O)N(c2cccc(C)c2)C1=O (stereo not given)	0	-4%	x	x

# Limited to Rango release inh and miR-21 FLuc, for some of the entries so far:
compound	Rango release inh	miR-21 FLuc
CC(=NNc1nc2ccccc2o1)c1cc2ccccc2cn1	u	x
CNC(=O)c1oc(-c2ccc(Cl)cc2)nc1C	-1%	-9%
CCCCOc1cccc(C(=O)O)c1	-16%	0%
CC(C(=O)c1ccccc1)n1cnc2ccccc2c1=O (stereo not given)	-3%	-21%
CCSc1nc(NCCN(C)C)c2c3c(sc2n1)COC(C)(CC)C3 (stereo not given)	-1%	-2%

# Remaining list, next part.
Structure	GLA inh pH 4.5	miR-21 FLuc	Rango release inh	Rango-impB inh
Cc1nn(C(=O)CNC(=O)c2ccccc2)c(C)c1C	8	1%	5%	1.0%
Cc1cc(C)cc(C(=O)NCC(=O)N2CCN(C(c3ccccc3)c3ccccc3)CC2)c1	x	17%	-23%	0.1%
CCC(=O)Nc1nc(CC(=O)Nc2ccccc2)cs1	-10	-8%	-5%	-4.0%
Cc1cccc(C(=O)NC2CCN(C(=O)Nc3ccc(F)cc3)CC2)c1	x	-2%	-10%	0.3%
Cc1c(C(=O)N2CCC2)oc2c(F)cccc12	x	x	-16%	0.4%
COc1ccccc1/C=C1\SC(=S)N(N2C(=O)CCCC2=O)C1=O	3	3%	u	u
Cc1ccc(-c2cc(-c3ccccc3O)nc(N/N=C/c3cccnc3)n2)cc1	1	-7%	1%	-0.3%
Cc1cccc(NC(=O)c2cnn3ccccc23)c1C	-9	-15%	-8%	-0.5%
Cc1onc(-c2c(F)cccc2Cl)c1C(=O)OCC(=O)NC1CC1	-7	-3%	-3%	-1.9%
C=CCN=C1CCCc2c1[nH]c1ccc(C)cc21	-1	-22%	u	-5.8%
CS(=O)(=O)Nc1ccc(C(=O)NC2CCCC2)cc1	4	-7%	15%	-5.4%
Clc1ccc2c(NCc3cccs3)ncnc2c1	x	13%	-6%	-3.5%
CCCOc1ccc(-c2cnc(SCC(N)=O)nc2N)cc1	5	-2%	-29%	-1.0%
O=C1CC(c2ccccc2F)C2=C(COC2=O)N1 (stereo not given)	12	-4%	18%	1.0%
COc1ccc(CNC(=O)[C@H](C)NC(=O)C2CC(=O)N(c3ccc(OC)cc3)C2)cc1 (stereo not given in full)	x	1%	-4%	1.3%
CCc1ccc(-c2nn(Cc3ccccc3)cc2/C=C/C(=O)O)cc1	0	-6%	-13%	-1.0%
O=C(NCC1CCCO1)c1ccc2c(c1)OCO2 (stereo not given)	3	-22%	26%	u
Cc1nn(Cc2ccc(C(=O)O)o2)c(C)c1[N+](=O)[O-]	-6	-4%	-9%	-0.1%
CCC1CCCCN1C(=O)Cn1c(C(=O)OC)cc2ccsc21 (stereo not given)	6	1%	17%	1.5%
Nc1cc(N)nc(SCC(=O)Nc2ccccc2)n1	-4	0%	0%	-1.5%
O=C(NCC1CCCN(Cc2ccccc2F)C1)c1cccc(C(F)(F)F)c1 (stereo not given)	2	-2%	1%	7.1%
Cc1nn(Cc2ccc([N+](=O)[O-])cc2)c(=O)n1-c1c(F)cccc1F	9	-1%	-9%	-0.4%
CCN(CC)CCCOC(=O)C1(c2ccccc2)CCCC1	7	-3%	1%	-7.7%
COc1ccc(-c2csc(NC(=O)c3cccc(N4C(=O)CCC4=O)c3)n2)cc1OC	x	x	-1%	2.2%
Cc1ccc(-c2cc3cccc[n+]3cc2-c2ccc(C)cc2)cc1	7	u	u	u
Cc1c(Cl)cccc1NC(=S)NCc1cccn1C	-13	-7%	-3%	3.1%
O=C(c1cc(F)ccc1F)C1CCCN(C(=O)c2ccco2)C1 (stereo not given)	9	-3%	-8%	-1.9%
C=CCn1cc(CN2CCC(C(=O)Nc3cccc(-c4cccc(F)c4)c3)CC2)c(C)n1	x	6%	-10%	-0.4%
O=C(Cn1ncc2c(=O)oc3ccccc3c21)NCc1cccnc1	1	-3%	12%	4.0%
Cn1nnc(NC(=S)NC(=O)c2cccc3c(Br)cccc23)n1	x	0%	-6%	-0.4%
O=C(NC1CC2CCCC(C1)N2C(=O)NC1CCCCC1)c1ccccc1 (stereo not given)	3	-5%	u	u
COC(=O)CC/C(C)=N\Nc1ccc([N+](=O)[O-])cc1[N+](=O)[O-]	7	-4%	-4%	1.8%
CC1(C)CC(=O)C2=C(C1)N(Cc1ccco1)C(=O)C2(O)C(F)(F)F (stereo not given)	-6	-3%	6%	1.4%
O=C(Nc1ccc(S(=O)(=O)NC2=NCCCCC2)cc1)c1cccs1	x	x	9%	1.3%
O=c1ccn(Cc2ccccc2)cc1	3	0%	-8%	-3.0%
Cc1ccc(NC(=O)CCS(=O)(=O)c2ccc(Br)cc2)nc1	-1	-1%	13%	1.7%
Cc1nc2c(oc3ccc(Cl)cc32)c(=O)[nH]1	3	-4%	3%	5.3%
C=CCNc1nnc(SC2CC(=O)N(c3ccc(OC)cc3)C2=O)s1 (stereo not given)	8	u	-6%	-0.2%
Cc1ccc(-c2nc3ncccc3o2)cc1NC(=O)Cc1ccc(Cl)cc1	7	-11%	1%	-1.2%

# Assay outcomes as filed in PubChem.
